# UUG fidelity: yeast start codon fidelity modulation; S. cerevisiae UUG-firefly luciferase reporter, luminescence/redox ratio; activity score, % at 18.7 µM; 0.13% of 350,000 active; AID 602363;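 active = replicate mean at a twofold rise or more, about +100% in these data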;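 also: firefly luciferase made from a UUG start codon reports start codon fidelity; reporter light over untreated wells divided by growth signal over untreated wells; some hits fall short of that in this replicate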
# * = called active by the depositor; & = joins results of further samples. A portion of the library, so the mix of outcomes need not match the whole.
no. | UUG fidelity | mol
1 | -9 | Cc1ccc(-c2ccc([C@@H]3[C@@H](CO)N4CCCCN(C(=O)Nc5ccccc5)C[C@@H]34)cc2)cc1
2 | 0 | COc1ccc(NC(=O)Nc2cccc3c2O[C@@H](CN(C)CC2CCCCC2)[C@H](C)CN([C@H](C)CO)C3=O)cc1
3 | 14 | O=C(CC(F)(F)F)N1C[C@H]2[C@@H](c3ccccc31)[C@H](CO)N2C(=O)C1CCCCC1
4 | -1 | CCOC(=O)N(C)C[C@H]1OCc2ccccc2-c2ccccc2C(=O)N([C@H](C)CO)C[C@@H]1C
5 | -1 | CO[C@@H]1CN(C)C(=O)c2ccc(NC(=O)C3CCCC3)cc2OC[C@H](C)N(CC2CC2)C[C@@H]1C
6 | -13 | CN1c2ccc(-c3ccccc3)cc2[C@H]2[C@H](CCN2C(=O)NC2CCCC2)[C@@H]1CO
7 | -10 | OC[C@@H]1[C@H](c2ccc(-c3ccc(F)cc3)cc2)[C@H]2CN(Cc3ccncc3)CCCCN12
8 | -6 | Cc1ccc(S(=O)(=O)Nc2ccc3c(c2)C(=O)N([C@H](C)CO)C[C@@H](C)[C@H](CN(C)Cc2ccc4c(c2)OCO4)O3)cc1
9 | -6&5 | C[C@@H]1CN([C@H](C)CO)C(=O)Cc2cc(NC(=O)NC3CCCCC3)ccc2O[C@H]1CN(C)S(C)(=O)=O
10 | 16 | COc1ccc(S(=O)(=O)N2CCCCN3[C@@H](CO)[C@@H](c4ccc(C#CCC(C)C)cc4)[C@@H]3C2)cc1
11 | 8 | COc1cccc(-c2ccc3c(c2)[C@H]2[C@H](CCN2C(=O)CC2CC2)[C@H](CO)N3C)c1
12 | -10 | OC[C@H]1[C@@H](c2ccc(-c3ccc(F)cc3)cc2)[C@@H]2CN(Cc3cccnc3)CCCCN12
13 | 8 | O=C(C1CCC1)N1C[C@@H]2[C@H](c3ccccc31)[C@@H](CO)N2S(=O)(=O)c1ccccc1
14 | -5 | C[C@H]1CN([C@@H](C)CO)C(=O)Cc2cc(NS(=O)(=O)c3ccccc3)ccc2O[C@H]1CN(C)CC1CC1
15 | 11 | C[C@@H]1CN([C@@H](C)CO)C(=O)c2cccc(NC(=O)c3cnccn3)c2O[C@@H]1CN(C)C(=O)Nc1ccccc1
16 | -5 | O=C(C[C@@H]1CC[C@H]2[C@@H](COC[C@H](O)CN2Cc2cccc(-c3ccncc3)c2)O1)N1CCN(c2ccccc2)CC1
17 | -11 | O=S(=O)(c1ccccc1F)N1CC[C@@H]2[C@H](CO)Nc3ccc(-c4ccc(F)cc4)cc3[C@@H]21
18 | -12 | COc1ccc(NC(=O)Nc2ccc3c(c2)CC(=O)N([C@@H](C)CO)C[C@@H](C)[C@@H](CN(C)CC2CC2)O3)cc1
19 | 11 | O=S(=O)(c1ccccc1)N1CCCCN2[C@H](C1)[C@H](c1ccc(C#Cc3cccnc3)cc1)[C@@H]2CO
20 | -23 | O=C(c1cccnc1)N1CC[C@@H]2[C@H]1c1cc(-c3ccc(F)cc3)ccc1N[C@@H]2CO

# Rewritten bar-delimited: 7 of the compounds above.
entry | SMILES | UUG fidelity
14 | C[C@H]1CN([C@@H](C)CO)C(=O)Cc2cc(NS(=O)(=O)c3ccccc3)ccc2O[C@H]1CN(C)CC1CC1 | -5
15 | C[C@@H]1CN([C@@H](C)CO)C(=O)c2cccc(NC(=O)c3cnccn3)c2O[C@@H]1CN(C)C(=O)Nc1ccccc1 | 11
16 | O=C(C[C@@H]1CC[C@H]2[C@@H](COC[C@H](O)CN2Cc2cccc(-c3ccncc3)c2)O1)N1CCN(c2ccccc2)CC1 | -5
17 | O=S(=O)(c1ccccc1F)N1CC[C@@H]2[C@H](CO)Nc3ccc(-c4ccc(F)cc4)cc3[C@@H]21 | -11
18 | COc1ccc(NC(=O)Nc2ccc3c(c2)CC(=O)N([C@@H](C)CO)C[C@@H](C)[C@@H](CN(C)CC2CC2)O3)cc1 | -12
19 | O=S(=O)(c1ccccc1)N1CCCCN2[C@H](C1)[C@H](c1ccc(C#Cc3cccnc3)cc1)[C@@H]2CO | 11
20 | O=C(c1cccnc1)N1CC[C@@H]2[C@H]1c1cc(-c3ccc(F)cc3)ccc1N[C@@H]2CO | -23

# Following part
no. | UUG fidelity | mol
21 | 1 | COCC(=O)N1[C@H](CO)[C@@H](c2ccccc2)[C@@H]1CNC(=O)c1ccccn1
22 | 9 | O=C(C[C@H]1CC[C@@H]2[C@H](COC[C@H](O)CN2C(=O)Nc2ccc(F)cc2)O1)NC1Cc2ccccc2C1
23 | 0 | C[C@H](O)C#Cc1ccc([C@H]2[C@H](CO)N3CCCCN(C(=O)c4cccc(F)c4)C[C@@H]23)cc1
24 | 16 | O=C(Cc1ccccc1)N1C[C@@H]2[C@H](c3ccccc31)[C@H](CO)N2S(=O)(=O)c1ccccc1
25 | 7 | COc1ccc(CN(C)C[C@H]2Oc3c(NS(=O)(=O)c4ccc(Cl)cc4)cccc3C(=O)N([C@H](C)CO)C[C@@H]2C)cc1
26 | -4 | Cc1noc(C)c1S(=O)(=O)Nc1ccc2c(c1)C(=O)N([C@@H](C)CO)C[C@H](C)[C@@H](CN(C)S(=O)(=O)c1ccccc1)O2
27 | 25 | CC(C)OC(=O)N(C)C[C@H]1OCc2ccccc2-c2c(n(C)c3ccccc23)C(=O)N([C@@H](C)CO)C[C@@H]1C
28 | 3 | O=C(C[C@@H]1CC[C@@H]2[C@H](COC[C@@H](O)CN2S(=O)(=O)c2ccc(F)cc2)O1)N[C@H]1CCN(Cc2ccccc2)C1
29 | -8 | C[C@@H]1CN([C@H](C)CO)C(=O)c2cccc(NC(=O)c3cnccn3)c2O[C@@H]1CN(C)S(C)(=O)=O
30 | -2 | Cc1ccc(S(=O)(=O)Nc2ccc3c(c2)CC(=O)N([C@H](C)CO)C[C@H](C)[C@H](CN(C)C(=O)NC2CCCCC2)O3)cc1
31 | -4 | CCC(=O)N1CC[C@@H]2[C@H](CO)Nc3ccc(C#Cc4ccccc4)cc3[C@@H]21
32 | 8 | COc1ccccc1-c1ccc([C@H]2[C@H]3CN(S(=O)(=O)c4cn(C)cn4)CCCCN3[C@H]2CO)cc1
33 | 0 | CCCNC(=O)C[C@H]1CC[C@@H]2[C@H](COc3ccc(NC(=O)c4cscn4)cc3C(=O)N2C)O1
34 | -10 | C[C@H](CO)N1C[C@H](C)[C@H](CN(C)S(=O)(=O)c2cccs2)Oc2ccc(NC(=O)Cc3cn(C)c4ccccc34)cc2C1=O
35 | 0 | C/C=C/c1ccc([C@@H]2[C@@H](CN(C)C(=O)CC)N(C(=O)NC(C)C)[C@H]2CO)cc1
36 | -8 | CO[C@H]1CN(C)C(=O)c2cc(NC(C)=O)ccc2OC[C@H](C)N(C(=O)Cc2ccccn2)C[C@H]1C
37 | 24 | CCC(=O)N1CCCCN2[C@H](C1)[C@H](c1ccc(C#Cc3ccccc3F)cc1)[C@@H]2CO
38 | -4 | C[C@@H](NC(=O)C[C@@H]1CC[C@H]2[C@@H](COC[C@@H](O)CN2C(=O)Nc2cc(Cl)cc(Cl)c2)O1)c1ccccc1
39 | 4 | C[C@H]1CN([C@@H](C)CO)C(=O)Cc2cc(NC(=O)CCCCCC(=O)Nc3ccccc3N)ccc2O[C@H]1CN(C)C
40 | 27 | CCC(=O)N1[C@@H]2Cn3c(ccc(C4=CCCCC4)c3=O)[C@H]1[C@@H](C(=O)N[C@@H](C)c1ccccc1)[C@@H]2CO
41 | 7 | COc1ccc(S(=O)(=O)Nc2ccc3c(c2)C(=O)N([C@H](C)CO)C[C@@H](C)[C@@H](CN(C)Cc2ccc4c(c2)OCO4)O3)cc1
42 | 3 | COc1ccc(-c2ccc([C@@H]3[C@H]4CN(C(=O)c5ccc6c(c5)OCO6)CCCCN4[C@H]3CO)cc2)cc1
43 | 13 | C[C@@H]1CN([C@H](C)CO)C(=O)c2cccc(NC(=O)c3ccncc3)c2O[C@H]1CN(C)Cc1ccc(-c2ccccc2)cc1
44 | 9 | CCCC#Cc1ccc([C@H]2[C@H](CO)N3CCCCN(S(=O)(=O)Cc4ccccc4)C[C@@H]23)cc1
45 | -13 | O=S(=O)(c1ccccc1F)N1CC[C@H]2[C@H](CO)Nc3ccc(-c4ccccc4)cc3[C@H]21
46 | 14 | C[C@@H]1CN([C@@H](C)CO)C(=O)c2cccc(NS(=O)(=O)c3cccs3)c2O[C@H]1CN(C)C
47 | 3 | C[C@H]1CN([C@@H](C)CO)C(=O)c2cc(NS(=O)(=O)c3ccc(Cl)cc3)ccc2O[C@@H]1CN(C)Cc1ccc(C(=O)O)cc1
48 | 7 | O=C(C[C@H]1CC[C@@H]2[C@H](COC[C@@H](O)CN2Cc2ccccc2)O1)N[C@@H]1CCN(Cc2ccccc2)C1
49 | -2 | Cc1ccc(S(=O)(=O)Nc2ccc3c(c2)C(=O)N([C@H](C)CO)C[C@@H](C)[C@H](CN(C)C(=O)Nc2ccc(C(F)(F)F)cc2)O3)cc1
50 | 2 | COc1ccccc1S(=O)(=O)N1CC[C@@H]2[C@H](CO)Nc3ccc(-c4ccccc4)cc3[C@@H]21
51 | -5 | C/C=C/c1ccc([C@H]2[C@@H](CO)N(CC3CC3)[C@@H]2CNC(=O)c2ccccc2)cc1
52 | 0 | COc1ccc(S(=O)(=O)N(C)C[C@@H]2Oc3c(NC(=O)C4CCOCC4)cccc3C(=O)N([C@H](C)CO)C[C@H]2C)cc1
53 | 21 | O=C(c1ccc(F)cc1)N1C[C@H]2[C@@H](c3ccccc31)[C@H](CO)N2C(=O)c1ccc(F)cc1
54 | -9 | C/C=C/c1ccc([C@@H]2[C@@H](CNC(=O)c3ccccc3)N(C(C)=O)[C@H]2CO)cc1
55 | -5 | CCC(=O)N1CCCCN2[C@H](CO)[C@H](c3ccc(-c4cccc(C(=O)N(C)C)c4)cc3)[C@H]2C1
56 | -8 | COCC(=O)Nc1ccc2c(c1)C(=O)N(C)C[C@@H](OC)[C@H](C)CN(CC1CCCCC1)[C@H](C)CO2
57 | 10 | O=C(Cc1cccnc1)N1[C@@H](CO)[C@H](c2ccccc2)[C@@H]1CNCC1CCC1
58 | -4 | COc1ccc(NC(=O)Nc2ccc3c(c2)[C@@H]2C[C@H](CC(=O)N(C)C)O[C@H](CO)[C@@H]2O3)cc1
59 | -14 | C[C@H](CO)N1C[C@H](C)[C@H](CN(C)Cc2ccncc2)Oc2ccc(NS(=O)(=O)c3cn(C)cn3)cc2C1=O
60 | 1 | COCC(=O)N1CC[C@@H]2[C@H]1c1cc(-c3cccc(F)c3)ccc1N(C)[C@H]2CO
61 | -8 | N#Cc1cccc(-c2ccc([C@@H]3[C@H]4CN(Cc5ccccc5F)CCCCN4[C@H]3CO)cc2)c1
62 | -11 | C[C@H]1CN([C@@H](C)CO)C(=O)c2cccc(NS(C)(=O)=O)c2O[C@@H]1CN(C)C(=O)Nc1ccccc1
63 | 9 | C[C@H](CO)N1C[C@H](C)[C@@H](CN(C)C(=O)Nc2ccccc2)Oc2ccc(NS(C)(=O)=O)cc2CC1=O
64 | -5 | COCC(=O)Nc1ccc2c(c1)C(=O)N(C)C[C@H](OC)[C@@H](C)CN(Cc1cncnc1)[C@@H](C)CO2
65 | 11 | O=C(C[C@@H]1CC[C@@H]2[C@H](COC[C@@H](O)CN2S(=O)(=O)c2ccc(Cl)cc2)O1)N[C@H]1CCN(Cc2ccccc2)C1
66 | -9 | O=C(C[C@@H]1CC[C@@H]2[C@H](COC[C@H](O)CN2Cc2nccs2)O1)NCc1ccc(Cl)cc1
67 | 14 | CCCC#Cc1ccc([C@@H]2[C@H](CO)N3CCCCN(S(=O)(=O)c4ccccc4F)C[C@@H]23)cc1
68 | -1 | C[C@@H]1CN([C@@H](C)CO)C(=O)c2cccc(NS(C)(=O)=O)c2O[C@@H]1CN(C)C(=O)Nc1ccc(C(F)(F)F)cc1
69 | 29 | C[C@@H]1CN([C@@H](C)CO)C(=O)Cc2cc(NS(=O)(=O)c3ccc(F)cc3)ccc2O[C@H]1CN(C)CC1CCCCC1
70 | 10 | C[C@H]1CN([C@@H](C)CO)C(=O)c2cc(NS(=O)(=O)c3cn(C)cn3)ccc2O[C@@H]1CN(C)C

# (continued)
no. | UUG fidelity | mol
71 | -21 | CCNC(=O)C[C@@H]1CC[C@@H]2[C@H](COC[C@@H](O)CN2C(=O)Nc2c(C)noc2C)O1
72 | 1 | O=S(=O)(Cc1ccccc1)N1CCCCN2[C@H](CO)[C@@H](c3ccc(-c4cccnc4)cc3)[C@@H]2C1
73 | -14 | CC(C)NC(=O)Nc1ccc2c(c1)C(=O)N([C@H](C)CO)C[C@@H](C)[C@@H](CN(C)Cc1ccc3c(c1)OCO3)O2
74 | -8 | COC(=O)C[C@@H]1CC[C@@H]2[C@@H](COc3ccc(NC(=O)Nc4c(C)noc4C)cc3C(=O)N2C)O1
75 | -13 | CO[C@H]1CN(C)C(=O)c2cc(NS(=O)(=O)c3ccccc3C)ccc2OC[C@H](C)NC[C@H]1C
76 | 21 | CO[C@@H]1CN(C)C(=O)c2cc(NC(=O)c3ccc(F)cc3)ccc2OC[C@H](C)N(C(=O)c2ccc(F)cc2)C[C@H]1C
77 | -16 | Cc1cc(C(=O)Nc2cccc3c2O[C@H](CN(C)C(=O)Nc2ccccc2)[C@H](C)CN([C@H](C)CO)C3=O)n(C)n1
78 | -2 | Cc1cccc(S(=O)(=O)N2CC[C@@H]3[C@@H](CO)Nc4ccc(C#Cc5ccc(F)cc5)cc4[C@@H]32)c1
79 | 4 | C[C@@H]1CN([C@@H](C)CO)C(=O)c2cc(NC(=O)CCN3CCOCC3)ccc2O[C@@H]1CN(C)C(=O)NC1CCCCC1
80 | -3 | CC(=O)NC[C@H]1[C@H](c2ccc(-c3ccccc3)cc2)[C@@H](CO)N1C(=O)C1CCC1
81 | 1 | CC(C)NC(=O)N1CCCCN2[C@H](C1)[C@@H](c1ccc(C#Cc3ccccc3F)cc1)[C@@H]2CO
82 | -8 | O=C(Nc1ccc2c(c1)[C@@H]1C[C@@H](CC(=O)N3CCOCC3)O[C@H](CO)[C@@H]1O2)NC1CCCC1
83 | 2 | C[C@@H]1CN([C@H](C)CO)C(=O)c2cc(NC(=O)Nc3cccc4ccccc34)ccc2O[C@@H]1CN(C)S(=O)(=O)c1ccc(Cl)cc1
84 | -11 | C[C@@H]1CN([C@@H](C)CO)C(=O)c2cc(NC(=O)Cc3cn(C)c4ccccc34)ccc2O[C@H]1CN(C)C(=O)Nc1cccc2ccccc12
85 | 31 | CCCC(=O)Nc1ccc2c(c1)OC[C@@H](C)N(Cc1ccc(-c3ccccn3)cc1)C[C@H](C)[C@H](OC)CN(C)C2=O
